# A647 fluor: A647 region autofluorescence; Compound fluorescence, A647 channel (570/671 nm), Tris buffer; max dye-equivalent concentration, M; 59,000 tested, under 10 active; AID 592; active means above 1 µM dye equivalent; inconclusive means 0.1 to 1 µM; inactive means 0.1 µM or less;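 further: values scaled relative to a standard on each plate; highest value over a series up to 38 µM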
#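 Fluorescence read (570 nm ex, 671 nm em) after 15 min RT incubation of compounds in 100 mM Tris buffer, pH 8.0; values expressed as dye-equivalent concentration against a six-point A647 standard series on each plate.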
# AID923: qHTS Assay for Allosteric/Competitive Inhibitors of Caspase-1: Spectroscopic Profiling in AFC Spectral Region; Potency, µM (series often up to 57.5 µM), inactives show at the top dose fluorescence increase, usual class: activators; AID 923, 2007; compound fluorescence, AFC spectral region (405/520 nm); almost no hit is shown here; actives 1.1% (n = 75,000); active means well fitted activation curve with a large enough effect; inconclusive means small, poorly fitted or top-dose-only effect;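 further: potency means the concentration at half of the fitted maximal effect; 0% is about no effect; scaled to a free AFC standard on each plate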
#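 Titrations up to 57 uM read every 20 sec for 3 min (405/520 nm) with 50 nM caspase 1 and 5 uM Ac-WEHD-AFC, pH 7.5 HEPES buffer. Fluorescence-vs-time intercept gave baseline, scaled against on-plate AFC standard.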
# A488 fluor: compound autofluorescence in A488 spectral region; compound autofluorescence, A488 spectral region, dye equivalency; stronger effect = higher value; max dye equivalency, M; actives 0.1% (n = 59,000); AID 591; active = above 10 nM dye equivalent; inconclusive = 1 to 10 nM; inactive = 1 nM or less; about half of its hits are not listed in these tables;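 further: highest value over a series up to 38 µM; compound alone in buffer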
#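 Intrinsic compound fluorescence is measured in 100 mM Tris buffer at pH 8.0 following 15 min incubation at room temperature. Intensities at 480 nm excitation/540 nm emission are calibrated to an on-plate A488 concentration series, giving dye-equivalent concentrations.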
# Resorufin autofl: resorufin region autofluorescence; Compound fluorescence, resorufin region 547/598 nm, buffer; stronger effect = higher value; max dye-equivalent concentration, M; actives 0.04% (n = 59,000); active = above 10 nM dye equivalent; inconclusive = 1 to 10 nM; inactive = 1 nM or less; a few of its hits are not listed in these tables; further: highest value over a series up to 38 µM
#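 Tris 100 mM pH 8.0; compound added, 15 min RT; CCD imager read, ex 547 nm/em 598 nm; signal normalized to resorufin standard curve (six concentrations per plate) as dye-equivalent concentration.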
# TSHR agonist: agonists of human thyroid stimulating hormone receptor | HEK293-CNG-TSHR cells (CNG channel as cAMP sensor), membrane potential dye, cAMP | AID 926 | Potency, µM (titrated, usually from 57.1 µM), inactives show at the top dose activation, most hits filed as activators | actives 0.48% (n = 73,000) | P16473; active = well fitted activation curve of enough size with the parental cells flat; inconclusive = any curve in the parental cells; inactive = parental cells flat and receptor cells flat or falling; further: potency means the concentration at half of the fitted maximal effect; % of control where 0% means no effect; weak receptor curves with flat parental cells got no call and are not listed
# Target sequence (P16473 whole entry, looked up): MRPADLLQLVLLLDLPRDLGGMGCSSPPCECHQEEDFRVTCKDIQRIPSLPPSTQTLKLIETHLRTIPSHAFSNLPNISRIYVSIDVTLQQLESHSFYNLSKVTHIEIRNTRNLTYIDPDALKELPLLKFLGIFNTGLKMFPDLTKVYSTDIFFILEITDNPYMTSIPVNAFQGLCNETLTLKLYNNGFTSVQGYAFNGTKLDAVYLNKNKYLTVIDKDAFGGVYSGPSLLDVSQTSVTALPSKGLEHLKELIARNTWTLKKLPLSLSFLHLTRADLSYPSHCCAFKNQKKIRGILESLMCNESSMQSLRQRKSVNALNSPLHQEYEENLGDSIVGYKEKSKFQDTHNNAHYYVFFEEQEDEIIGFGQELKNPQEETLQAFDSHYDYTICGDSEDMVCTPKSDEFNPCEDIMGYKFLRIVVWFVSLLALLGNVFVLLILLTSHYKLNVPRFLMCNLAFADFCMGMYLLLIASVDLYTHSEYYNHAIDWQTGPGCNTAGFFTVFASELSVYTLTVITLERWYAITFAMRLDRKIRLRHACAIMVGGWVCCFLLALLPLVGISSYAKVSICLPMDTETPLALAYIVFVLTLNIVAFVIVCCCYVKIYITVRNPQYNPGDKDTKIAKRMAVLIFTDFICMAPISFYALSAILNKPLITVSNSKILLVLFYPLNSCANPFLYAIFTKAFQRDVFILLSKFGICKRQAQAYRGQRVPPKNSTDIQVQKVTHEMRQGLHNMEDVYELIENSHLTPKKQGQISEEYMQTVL
#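 HEK 293 cells stably expressing TSHR and a cAMP-gated CNG channel; parental CNG-only cells as counterscreen. Cells preloaded 60 min with membrane potential dye plus 100 uM RO 20-1724, then compound 30 min; fluorescence read at 590 nm.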
# * marks the source's active call; other numbers are inactive results; i = inactive; u = inconclusive; x = not tested or not shown; & = joins results of further samples; [ ] = another dose, or the depositor's remark. An excerpt (hit frequency here may not be typical).
# Start of the listing, in advance, five compounds:
SMILES,A647 fluor,AID923,A488 fluor,Resorufin autofl,TSHR agonist
CNC(=O)c1c(C)nc(SCC(=O)NCc2ccc(OC)cc2)c(C#N)c1-c1ccco1,5.9e-09,0.1%,i,i,5%
O=S(=O)(c1ccc2c(c1)C(=NO)c1cc(S(=O)(=O)N3CCCCC3)ccc1-2)N1CCCCC1,3.3e-08,-0.2%,i,i,u
O=C(NCc1ccc2c(c1)OCO2)C1CCCN(S(=O)(=O)c2cccc3cccnc23)C1 (centres undefined),x,3.6%,x,x,8%
CCOc1ccc(-n2c(-c3ccco3)n[nH]c2=S)cc1,3.1e-09,1.3%,i,i,x
C=CCNC(=O)c1ccccc1NS(=O)(=O)c1ccccc1,6.1e-09,2.1%,i,i,13%

# The list itself, repeating the preview:
SMILES,A647 fluor,AID923,A488 fluor,Resorufin autofl,TSHR agonist
CNC(=O)c1c(C)nc(SCC(=O)NCc2ccc(OC)cc2)c(C#N)c1-c1ccco1,5.9e-09,0.1%,i,i,5%
O=S(=O)(c1ccc2c(c1)C(=NO)c1cc(S(=O)(=O)N3CCCCC3)ccc1-2)N1CCCCC1,3.3e-08,-0.2%,i,i,u
O=C(NCc1ccc2c(c1)OCO2)C1CCCN(S(=O)(=O)c2cccc3cccnc23)C1 (centres undefined),x,3.6%,x,x,8%
CCOc1ccc(-n2c(-c3ccco3)n[nH]c2=S)cc1,3.1e-09,1.3%,i,i,x
C=CCNC(=O)c1ccccc1NS(=O)(=O)c1ccccc1,6.1e-09,2.1%,i,i,13%
O=C(NC1=NCCS1)c1cccc(S(=O)(=O)N2CCCCC2)c1,3.5e-09,1.3%,i,i,-2%
COc1ccc(OC)c(S(=O)(=O)Nc2cccc(C(C)=O)c2)c1,1e-09,-4.3%,i,i,0%
CCCn1nnc(NC(=O)COc2ccccc2Cl)n1,2.7e-09,-0.6%,i,i,u
CN(C)c1ccnc2sc3c(=O)n(-c4ccccc4)cnc3c12,4.1e-08,-2.4%,i,i,6%
CO[C@@H]1COC(=O)C/C=C\[C@H](C)COC(=O)[C@H](C)NC(=O)C/C=C\[C@H]1C,x,-2.4%[11.5 µM],x,x,-6%[11.4 µM]
OC[C@@H]1O[C@@H](n2cnc3c(N[C@@H]4C[C@@H]5CC[C@H]4C5)ncnc32)[C@@H](O)[C@H]1O,2.3e-09,-0.5%,i,i,-6%
COc1ccccc1OCc1nc2c3c(-c4ccccc4)c(-c4ccccc4)oc3ncn2n1,1e-09,1.1%,i,i,13%
COc1ccc2c(c1)n([O-])c1c([n+]2=O)CCC1,4.8e-08,x,i,i,x
CN1CCN(S(=O)(=O)c2cccc(C(=O)Nc3sc4c(c3C(N)=O)CCCC4)c2)CC1,1e-09,-0.3%,i,i,12%
CCCS(=O)(=O)N1CCN(C(=O)c2cccc(OC)c2)CC1,x,-3.4%,x,x,0%
Cc1ccc(NC(=O)CCN2CCc3ccccc3C2)cc1,3e-08,0.2%,i,i,12%
CCC(=O)N1CCc2cc(S(=O)(=O)CCC(=O)NCCc3ccc(OC)c(OC)c3)ccc21,1.8e-09,1.5%,i,i,3%
CCN(CC)S(=O)(=O)c1cccc(S(=O)(=O)c2cccc(S(=O)(=O)N(CC)CC)c2)c1,x,1.1%,x,x,u
CCOC(=O)C(C)Sc1nc2c(cnn2-c2ccc(C)cc2)c(=O)[nH]1 (centres undefined),2.3e-08,-1.0%,i,i,7%
CCn1c(SCc2ccc(C#N)cc2)nnc1-c1cccc(Cl)c1,2.7e-08,-1.1%,i,i,x
CCn1cc(C(=O)Nc2ccccc2C(=O)OC)c(=O)c2ccc(C)nc21,4.6e-09,-0.9%,i,i,-5%
O=C(NCc1ccccc1)C1CCN(C(=O)NCc2ccccc2)CC1,1e-09,-3.2%,i,i,56%
O=C(CC1CCCCC1)Nc1c2c(nn1-c1ccc(F)cc1)CS(=O)(=O)C2,1e-09,-0.3%,i,i,u
Cc1ccc(S(=O)(=O)Cc2cccc(C(=O)N3CCOCC3)c2)cc1,7.4e-09,-0.8%,i,i,1%
CCOCCCNC(=O)CCNC(=O)c1cc(OC)c(OC)c(OC)c1,1e-09,1.5%,i,i,6%

# (next part)
SMILES,A647 fluor,AID923,A488 fluor,Resorufin autofl,TSHR agonist
CN1C(=O)/C(=C2\SC(=S)N(CC3CCCO3)C2=O)c2ccccc21 (centres undefined),x,6.4%,x,x,-5%
COc1ccc(C(=O)CC(=O)O)c2c1C=CC(C)(C)O2,x,20%,x,x,-4%[11.4 µM]
O=[N+]([O-])c1ccc2c(c1)S(=O)c1ccccc1-2 (centres undefined),4e-08,0.5%[11.5 µM],i,i,9%[11.4 µM]
Cc1cc2c(c(SCC(=O)N(C)c3ccccc3)n1)C(=O)OC2,3.4e-09,0.9%,i,i,4%[11.4 µM]
COc1ccc(N(CC(=O)Nc2cc(C)ccc2OC)S(=O)(=O)c2c(C)noc2C)cc1,1.1e-08,-1.3%,i,i,5%
Cn1c(N)c(C(=O)NCc2ccccc2)sc1=S,1.9e-08,2.3%,i,i,29%[11.4 µM]
Cn1c(=S)c2[nH]c(SCc3cccnc3)nc2n(C)c1=O,4.9e-08,-0.4%[11.5 µM],i,i,1%[11.4 µM]
c1ccc2sc(-c3ccc4c(c3)OCO4)nc2c1,x,1.2%,x,x,11%
COc1ccc(CCN(C)C(=O)CSc2nccn2C)cc1OC,1e-09,-1.4%,i,i,2%
C=CCn1c(Cc2csc(N)n2)nnc1SCC(=O)OCC,3.1e-08,-0.5%,i,i,-1%
Cc1oc(-c2cccs2)nc1CS(=O)CC(=O)NCCc1ccccc1 (centres undefined),x,-3.3%,x,x,7%
CCCCN(C)CCNC(=O)c1c[nH]c2ccc(S(=O)(=O)N(CC)CC)cc2c1=O,1.3e-09,-0.8%,i,i,3%
Cc1cc(NC(=O)CCC(=O)N(c2cccc(F)c2)C(C(=O)NC2CCCC2)c2ccncc2)no1 (centres undefined),4.8e-09,-0.4%,i,i,x
N=c1ccn2c(n1)O[C@@H]1[C@@H](O)[C@H](CO)O[C@H]12,1e-09,-1.7%,i,i,5%
Cc1cccc(-c2nnc3sc(-c4ccccc4)nn23)c1,6.3e-09,-1.5%,i,i,u
COc1cccc(N2C(=O)CC(N3CCC(c4nc5ccccc5[nH]4)CC3)C2=O)c1 (centres undefined),1.9e-08,-0.7%,i,i,12%
CCCC(=O)Nc1ccc(Cl)c(NC(=O)c2ccc(Br)o2)c1,2.9e-08,1.4%,i,i,-1%
Cc1nnc(SC(C)C(=O)Nc2ccc3c(c2)OCCO3)s1 (centres undefined),2.2e-08,0.1%,i,i,3%
O=C(NCC(=O)N(c1cccnc1)C(C(=O)NC1CCCCC1)c1cccnc1)c1ccco1 (centres undefined),1e-09,-0.1%,i,i,-3%
CN(C)c1ccc(-c2nnn(CC(=O)Nc3ccccc3N3CCOCC3)n2)cc1,1e-09,3.4%,i,i,-2%
Cn1c(SCC(=O)N2CCOCC2)nc2sc3c(c2c1=O)CCCC3,1e-09,1.5%,i,i,6%
CCOC(=O)CC(NS(=O)(=O)c1ccc(NC(C)=O)cc1)c1ccc(OCC)cc1 (centres undefined),6.7e-09,-0.2%,i,i,5%[11.4 µM]
O=C(O)c1ccc(Oc2nc3ccccc3s2)cc1,1e-09,1.5%[11.5 µM],i,i,-5%[11.4 µM]
Cc1ccc(NS(=O)(=O)c2ccc(C)c(C(=O)N3CCN(C)CC3)c2)cc1,6.3e-09,-1.9%,i,i,-6%
CC(=O)N1CCN(c2ccc(Oc3nc(-c4ccccc4)nc4ccccc34)cc2)CC1,4.9e-09,-1.2%,i,i,25µM*

# Later entries.
SMILES,A647 fluor,AID923,A488 fluor,Resorufin autofl,TSHR agonist
COC(=O)c1ccccc1NC(=O)Cn1cnc2c(cnn2-c2ccccc2)c1=O,2.2e-08,0.3%,i,i,8%
CCCN1C(=O)c2cc(C(=O)Nc3ccccc3CC)ccc2C1O (centres undefined),x,-3.0%,x,x,-4%
Cc1ccc(-c2nc(C3CCN(S(=O)(=O)c4ccc(C(F)(F)F)cc4)CC3)no2)cc1,1e-09,0.6%,i,i,x
CCOC(=O)CNc1ccc2c(c1)OCO2,2.7e-08,1.7%,i,i,27%
Cc1cccc2c1NC(C)CC2C (centres undefined),2.8e-08,x,i,i,x
Cn1c(N2CCOCC2)nc(-c2ccccc2)c1-c1ccccc1,1e-09,-1.6%,i,i,x
Cc1cc(NC(=O)CSc2nnc(-c3ccco3)n2CC2CCCO2)no1 (centres undefined),9.6e-09,-1.5%,i,i,6%
O=C(NCc1nnc(SCC(=O)N2CCC(Cc3ccccc3)CC2)o1)c1ccccc1F,x,-0.2%,x,x,23%
Cc1cc(OCC(O)CN2CCN(C)CC2)ccc1C(C)C (centres undefined),2.5e-08,-1.1%,i,i,9%
O=C(Cn1nc(Cl)nc1Cl)c1ccc2c(c1)OCCO2,1e-09,2.3%,i,i,6%
Cc1ccccc1CNS(=O)(=O)c1ccc2c(c1)OCCO2,1e-09,0.9%,i,i,7%
CC(CN(C)C)NC(=O)c1ccc(-n2c(=O)c(=O)[nH]c3ccccc32)cc1 (centres undefined),x,1.9%,x,x,6%
c1ccc(CCc2nn3c(C4COc5ccccc5O4)nnc3s2)cc1 (centres undefined),6e-09,1.7%,i,i,u
Cc1ccc(-c2nc(C#N)c(NCCc3ccccn3)o2)cc1,1.2e-08,1.2%,i,i,-3%
NS(=O)(=O)c1ccc(CCNC(=O)CNC(=O)C2CCCCC2)cc1,2.3e-08,-0.7%,i,i,-1%
CC(C)n1c(NCc2nc3ccccc3n2C)nc2ccccc21,1.6e-08,-2.6%,i,i,-14%
Cn1c(SCC(=O)N2CCCc3ccccc32)nnc1-c1ccco1,1.6e-08,-0.3%,i,i,0%
C[C@@H]1CCN=C(N)S1,1e-09,-0.4%&-1.3%,i,i,3%&-2%
COC(=O)c1ccccc1NC(=O)Cn1c(-c2nonc2N)nc2ccccc21,3.8e-08,-2.1%,i,i,u
O=C(Nc1cccs1)NC1CCCC1,3.8e-08,4.9%,i,i,-3%[11.4 µM]
Cc1ccccc1NC(=O)Cn1cnc2c(oc3ccccc32)c1=O,1e-09,-0.3%,i,i,1%
COc1cccc(OC)c1C(=O)N1CCN(S(=O)(=O)c2ccc(C)cc2)CC1,1e-09,x,i,i,x
Cc1csc2nc3ccccc3c(=O)n12,2.1e-08,-1.9%,i,i,-1%
CCN1C(=O)/C(=C2/Sc3ccccc3N2CCCS(=O)(=O)O)SC1=S,1e-09,18%,i,i,0%[11.4 µM]
CN=c1scc(C)n1/N=C/c1ccc(O)cc1,2.2e-08,3.8%,i,i,4%

# Grouped by structure: the entries above with a COOH group (2)
SMILES,A647 fluor,AID923,A488 fluor,Resorufin autofl,TSHR agonist
COc1ccc(C(=O)CC(=O)O)c2c1C=CC(C)(C)O2,x,20%,x,x,-4%[11.4 µM]
O=C(O)c1ccc(Oc2nc3ccccc3s2)cc1,1e-09,1.5%[11.5 µM],i,i,-5%[11.4 µM]

# Going on with the list:
SMILES,A647 fluor,AID923,A488 fluor,Resorufin autofl,TSHR agonist
CC(C)C(c1nnnn1Cc1ccco1)N1CCN(C2CCCC2)CC1 (centres undefined),2.5e-09,-1.1%,i,i,u
CN1CCN(c2ncncc2-c2ccc(N(C)C)cc2)CC1,4.6e-08,1.6%,i,i,4%
O=C(Nc1nncs1)Oc1ccccc1,4.9e-09,-1.6%,i,i,-3%
COc1ccc(N(C)C(=O)CCS(=O)(=O)c2cccc3nonc23)cc1,6.2e-09,1.4%,i,i,-1%
Nn1c(Nc2ccccc2)nc2ccccc21,x,0.4%,x,x,-9%
CCOC(=O)c1c(C)[nH]c(C(=O)COC(=O)c2ccncc2)c1C,1.5e-09,-1.3%,i,i,0%
CC1CCN(C(=O)C2CCC(CNS(=O)(=O)c3cccc4cccnc34)CC2)CC1 (centres undefined),x,0.5%,x,x,16%
O=C(Oc1ccccc1C(=O)N1CCOCC1)c1ccccc1,4.9e-08,-0.4%,i,i,2%
